# Screening results: PubChem, National Center for Advancing Translational Sciences (NCATS)
# miR-21 reporter: raises the signal of a miR-21 reporter | HeLa miR-21 FLuc reporter, luciferase, 48 h | Potency, µM (series often up to 38.3 µM), for the others: at the top dose reporter change, positive = more light | 340,000 tested, under 10 active | AID 2288; active = well fitted rising curve with a large enough effect; inconclusive = small, poorly fitted or top-dose-only effect; inactive = no such curve, though single readings can be large or run the other way;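 further: % of control where 0% means no effect; miR-21 action dims this reporter so a rising signal means less miR-21 action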
#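 Compounds were titrated across several concentrations (up to approximately 40 uM) and incubated 48 hours with HeLa miR-21-FLuc reporter cells (miR-21 target sequence downstream of FLuc, endogenous miR-21). Readout was firefly luciferase luminescence after lytic detection reagent.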
# Rango dissoc inh: prevents RanGTP from dissociating the Rango-importin beta complex | Potency, µM (highest dose often 46.1 µM), inactives show top-dose activity change, negative = inhibition | AID 540253 | O95149+P62826 | Biochemical FRET Rango-importin beta, RanGTP-induced dissociation | actives 0.071% (n = 340,000); active means falling FRET ratio curve, often poorly fitted, with flat reads before Ran was added; inconclusive means other falling curves, or compound fluorescence or quenching; inactive means flat or rising ratio curve;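 further: potency means the concentration at half of the fitted maximal effect; % of control where 0% means no effect; nearly all actives have a fitted effect of over 45% in size; -100% = wells without RanGTP and RCC1; the record marks most hits as doubtful in a second field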
#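 Rango (0.1 uM)–importin beta (0.25 uM) complex; RanGTP-RCC1 trigger; 45 min RT; CFP/YFP FRET read.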
# Rango complex inh: prevents formation of the Rango-importin beta complex. actives 0.031% (n = 340,000). AID 540263. Q14974. Rango CFP/YFP FRET sensor + importin beta, 45 min. Potency, µM (doses to about 92.2 µM), without a hit: at the highest dose inhibition of complex formation; active = rising FRET ratio curve, often small or poorly fitted; inconclusive = mostly compound fluorescence or quenching in the first reads; inactive = flat curves in all reads;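 further: potency means the concentration at half of the fitted maximal effect; 0% = DMSO wells and 100% = buffer wells lacking importin beta; nearly all actives have a fitted effect of over 15% in size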
#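 FRET biosensor Rango (snurportin 1 IBB between N-terminal EYFP and C-terminal Cerulean), 50 nM in PBS/1 mM DTT/0.02% Tween-20/0.1% BSA, preincubated 5 min RT with compound; 0.125 microM importin beta added, 45 min RT, CFP/YFP FRET ratio read.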
# GLA inh pH 4.5: inhibitors of human alpha-galactosidase A at pH 4.5 | P06280 | purified enzyme, 4-MU-alpha-Gal fluorescence, pH 4.5 | activity change, negative = inhibition, % at 105 µM | 230,000 tested, under 10 active; inconclusive = small, poorly fitted or top-dose-only inhibition, or a rising curve; inactive = flat fitted curve, though single readings scatter; no compound was filed as active;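 further: 0% = full activity with enzyme and -100% = basal without enzyme; dose as in the result columns while the protocol names 77 µM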
# Target sequence (P06280 whole entry, looked up): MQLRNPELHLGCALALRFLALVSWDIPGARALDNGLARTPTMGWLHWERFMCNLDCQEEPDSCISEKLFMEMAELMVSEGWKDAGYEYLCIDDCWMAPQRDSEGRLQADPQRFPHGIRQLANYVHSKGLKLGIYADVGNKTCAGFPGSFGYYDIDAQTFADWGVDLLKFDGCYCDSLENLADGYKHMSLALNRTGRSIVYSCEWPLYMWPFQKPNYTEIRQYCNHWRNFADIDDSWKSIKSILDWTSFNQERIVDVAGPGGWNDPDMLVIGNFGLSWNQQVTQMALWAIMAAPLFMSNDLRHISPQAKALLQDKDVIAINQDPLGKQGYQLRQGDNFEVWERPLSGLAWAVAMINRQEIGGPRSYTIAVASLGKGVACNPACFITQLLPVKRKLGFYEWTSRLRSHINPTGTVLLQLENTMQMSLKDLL
# * marks the source's active call; other numbers are inactive results; ? = inconclusive; nt = no result given. The list is partial. The share of hits here may be higher or lower than overall.
SMILES,miR-21 reporter,Rango dissoc inh,Rango complex inh,GLA inh pH 4.5
Cc1cc(Br)c(Cl)cc1NC(=O)CN1C(=O)C2C3CC(c4ccccc4)C(C3)C2C1=O (stereo not drawn),27%,-10%,-1.3%,-2
O=C(Nc1ccccc1F)n1ncc2cc(Cl)ccc21,-20%,9%,0.8%,nt
O=C1C2CC=CCC2C(=O)N1c1ccc(NCCc2ccc(Cl)cc2)c([N+](=O)[O-])c1 (stereo not drawn),-6%,12%,3.2%,-20
CCO[C@@H]1OC(C(=O)O)=C[C@H](c2csc3ccccc23)[C@H]1CCCO,-1%,21%,0.7%,5
CCN(CCNC(=O)C1CCCN(c2ncnc3c2nc2n3CCCCC2)C1)Cc1ccccc1 (stereo not drawn),6%,2%,2.3%,nt
CC(C)(C)c1ccc(C(=O)CCC(=O)OCC(=O)NCCc2ccc(S(N)(=O)=O)cc2)cc1,nt,7%,-4.0%,nt
Cc1ccccc1CNC(=O)C(=O)NCC1CCCN1S(=O)(=O)c1cccs1 (stereo not drawn),nt,0%,-0.2%,nt
COc1ccc(C(=O)NCC(=O)OCC(=O)c2c(C)[nH]c3ccccc23)cc1OC,nt,-17%,2.4%,nt
O=C(N1CCN(c2ccccc2F)CC1)C12CC3CC(CC(C3)C1)C2,-7%,12%,3.7%,6
Cc1ccc(-n2nc(C(=O)NCc3ccc(C)o3)c3c4ccccc4n(C)c3c2=O)cc1,1%,4%,3.4%,11
CNS(=O)(=O)c1cccc(C(=O)OCC(=O)N2CC(C)OC(C)C2)c1 (stereo not drawn),6%,-10%,1.3%,nt
Cc1ccc(S(=O)(=O)N2CCOCC2)cc1NC(=O)C(c1ccc(Cl)cc1)C(C)C (stereo not drawn),nt,31%,3.2%,nt
O=C(CNc1ccc2c(c1)OCO2)N/N=C\c1ccccc1Cl,-7%,6%,?,11
Cc1ccc(C(=O)Nc2ccc(S(=O)(=O)N3CCOCC3)cc2)cc1C,1%,22%,0.5%,nt
COC(=O)CCC/C=C1/SCC(NC(=O)c2ccccc2)C1NC(C)=O (stereo not drawn),-2%,9%,0.0%,7
Cc1cccc(C(=O)NNC(=O)c2ccc(-c3ccccc3)cc2)c1,-7%,?,-3.8%,10
COCC(COCCCNC(=O)Nc1ccc(Br)cc1)OC (stereo not drawn),-12%,-16%,-3.3%,-10
c1ccc2c(c1)nc(NC1CCCCC1)c1nncn12,-29%,20%,5.2%,5
Cc1cc(C)c(C)c(S(=O)(=O)NCc2ccc(C(=O)N3CCOCC3)cc2)c1C,-3%,0%,-4.1%,nt
O=C(Cc1ccc(NC(=O)C2CCCN(C(=O)C3CCCC3)C2)cc1)Nc1ccc(C(=O)N2CCOCC2)cc1 (stereo not drawn),nt,0%,?,nt
CN(C)S(=O)(=O)N(CC(=O)NCc1ccccc1)c1ccccc1,-2%,20%,-1.2%,-12
CC(Cc1ccccc1)NC(=S)CN1CCCC1=S (stereo not drawn),1%,-4%,0.0%,-1
C=CCC1CCCCC12NC(=O)NC2=O (stereo not drawn),7%,4%,-0.3%,-5
Cc1cccc(NNC(N)=S)c1,0%,-1%,-1.1%,5
Nc1nc(SCC(=O)Nc2ccccc2)nc2nc3c(cc12)CCCC3,-26%,-1%,?,-7
COc1ccc(N2C(=O)C3CCCCC3C2=O)cc1NC(=O)c1ccccc1 (stereo not drawn),2%,4%,-0.7%,4
O=C(Nn1c(-c2ccc(F)cc2)nc2ccccc2c1=O)C1CCCCC1,-2%,-11%,0.7%,-3
Cc1ccc(N=Nc2c(N)n[nH]c2N)cc1,-55%,-1%,-3.5%,nt
COc1cc(-c2nnc3sc(-c4ccco4)nn23)cc(OC)c1OC,-5%,-6%,-3.0%,0
CC(C)P(=O)(Cc1cccc(C#N)c1)C(C)C,-2%,2%,?,13
CC(C)N1CN=C(Nc2nc3ccccc3o2)NC1,-41%,2%,3.0%,7
Cc1ccc(S(=O)(=O)NCCC(=O)NC2CCC(C)CC2)cc1 (stereo not drawn),nt,13%,-0.1%,nt
O=C(CSc1nc2c(sc3ccccc32)c(=O)n1CCCN1CCCC1)NCc1ccco1,-4%,-10%,-3.1%,17
O=C(COC(=O)C1CC1)Nc1nc(-c2ccc(F)c(F)c2)cs1,nt,17%,-0.4%,nt
Cc1cnc(NC(=O)Nc2ccccc2)c(C)n1,-8%,5%,-4.0%,nt
CCN(CC)C(=O)CC(c1cc(OC)c(OC)c(OC)c1)c1c(O)cc(OC)cc1OC (stereo not drawn),-4%,7%,3.1%,2
COc1cc(C(=O)N/N=C/c2coc3ccccc3c2=O)cc(OC)c1OC,-31%,2%,?,nt
NC(=O)COc1ccc(C23CC4CC(CC(C4)C2)C3)cc1,-58%,0%,1.7%,0
COc1cccc(C=O)c1OCCCOc1cccc2cccnc12,-12%,4%,-0.2%,nt
Cc1ccc(C(=O)OCC(=O)NCc2ccc3c(c2)OCO3)o1,nt,5%,-1.5%,nt
NC(=O)c1nnn(-c2cccc(C(F)(F)F)c2)c1-c1ccccc1,-12%,4%,-2.1%,-2
OC(CSc1ccccc1)CN1CCN(c2cccc(Cl)c2)CC1 (stereo not drawn),nt,1%,3.5%,nt
COc1ccc(OCC(=O)Nc2cc(OC)cc(OC)c2)cc1,-3%,-10%,-0.9%,5
CCC1(c2ccc(Cl)cc2)NC(=O)N(Cc2ccc(C(=O)OC)cc2)C1=O (stereo not drawn),15%,2%,-4.5%,-16
Cc1ccc(-c2nn(-c3cccc(F)c3)cc2CN(Cc2nccn2C)C(C)C)o1,-12%,-10%,-0.1%,-6
CCCCOc1ccc(/C(O)=C2/C(=O)C(=O)N(Cc3cccnc3)C2c2ccncc2)c(C)c1 (stereo not drawn),-10%,-9%,0.8%,10
Cc1cc(C)c2c(n1)sc1c(-c3ccccc3)c(C#N)c(N)nc12,-2%,?,?,-4
CC1(C)CC(=O)C=C(NC2CCCC(O)C2)C1 (stereo not drawn),nt,1%,-1.2%,nt
Cc1ccc(-n2nnnc2SCC(=O)Nc2sccc2C#N)cc1,-7%,4%,2.1%,-2
CSc1nc(C)nc(N/C=C(\C#N)S(=O)(=O)c2ccccc2Cl)n1,3%,-14%,-0.3%,5
# Further entries.
SMILES,miR-21 reporter,Rango dissoc inh,Rango complex inh,GLA inh pH 4.5
CCN1C(=O)c2ccccc2S(=O)c2ccc(C(=O)NCCCN3CCCC3=O)cc21 (stereo not drawn),-15%,-7%,0.1%,4
O=C(C[n+]1ccccc1)Nc1c(Cl)cc(Cl)cc1Cl,0%,-6%,-1.1%,-3
Cc1cccc(NC(=O)Nc2nnc(N3CCCCC3C)s2)c1C (stereo not drawn),-8%,6%,0.7%,1
COc1cccc(NC(=O)CSc2nc3ccccc3nc2N2CCCC2)c1,2%,?,?,nt
COc1ccc(S(=O)(=O)Nc2cc(C(=O)NCCCOC(C)C)ccc2N2CCOCC2)cc1,-8%,2%,-0.2%,-15
Cc1cccc(C)c1OCCNC(=O)C(=O)NCc1ccco1,-2%,-7%,0.7%,7
Cc1ccc(CNC(=O)CCC2CCCN(Cc3cccc4ncccc34)C2)o1 (stereo not drawn),-14%,6%,3.2%,-9
CCOc1cc(NC(=S)NCCCN2CCOCC2)c(OCC)cc1NC(=O)C(C)C,2%,-3%,0.0%,8
COCCNC(=O)C(c1ccccc1C)N(CCOC)C(=O)Cn1nnc2ccccc21 (stereo not drawn),-2%,6%,-0.7%,-2
O=C(CSc1n[nH]c(-c2ccncc2)n1)Nc1ccccc1C(F)(F)F,-6%,1%,0.3%,nt
O=C(NCc1ccccn1)c1cccc(NS(=O)(=O)c2cccc(F)c2)c1,1%,-25%,1.6%,-1
O=C1OC(Nc2ccc(F)c([N+](=O)[O-])c2)c2ccccc21 (stereo not drawn),-11%,1%,-0.5%,-6
CCOC(=O)c1ccc(COc2nc3ccccc3nc2-c2ccccc2NC(C)=O)o1,-4%,8%,0.2%,4
CCOc1ccc(S(=O)(=O)NCCC(=O)N2CC(C)CC(C)C2)cc1 (stereo not drawn),nt,-15%,0.1%,nt
Cc1cccc(C2=N/C(=C\c3cccnc3)C(=O)O2)c1,-2%,2%,-1.0%,nt
CCOc1cc(CN2CCN(CCc3ccccc3)C(CCO)C2)ccc1OC (stereo not drawn),-2%,3%,-0.2%,2
O=C(CS(=O)CC(=O)N(c1cccc(F)c1)C(C(=O)NC1CCCCC1)c1ccco1)Nc1ccc(F)cc1 (stereo not drawn),-3%,-5%,1.6%,2
COc1cc(C(=O)Nn2c(C)nc3ccccc3c2=O)cc(OC)c1OC,8%,2%,-0.7%,nt
CCCc1[nH]nc2c1C(c1ccc(O)c(OC)c1)C(C#N)=C(N)O2 (stereo not drawn),9%,-5%,-3.0%,-9
COc1ncnc2c1oc1nc(CC(C)C)c3c(c12)CCCC3,-1%,2%,?,-2
O=C(COn1nnc2ccc(Cl)cc21)NC1CCS(=O)(=O)C1 (stereo not drawn),nt,6%,-2.0%,nt

# Molecules listed so far that contain fluorine, in the order listed:
SMILES,miR-21 reporter,Rango dissoc inh,Rango complex inh,GLA inh pH 4.5
O=C(Nc1ccccc1F)n1ncc2cc(Cl)ccc21,-20%,9%,0.8%,nt
O=C(N1CCN(c2ccccc2F)CC1)C12CC3CC(CC(C3)C1)C2,-7%,12%,3.7%,6
O=C(Nn1c(-c2ccc(F)cc2)nc2ccccc2c1=O)C1CCCCC1,-2%,-11%,0.7%,-3
O=C(COC(=O)C1CC1)Nc1nc(-c2ccc(F)c(F)c2)cs1,nt,17%,-0.4%,nt
NC(=O)c1nnn(-c2cccc(C(F)(F)F)c2)c1-c1ccccc1,-12%,4%,-2.1%,-2
Cc1ccc(-c2nn(-c3cccc(F)c3)cc2CN(Cc2nccn2C)C(C)C)o1,-12%,-10%,-0.1%,-6
O=C(CSc1n[nH]c(-c2ccncc2)n1)Nc1ccccc1C(F)(F)F,-6%,1%,0.3%,nt
O=C(NCc1ccccn1)c1cccc(NS(=O)(=O)c2cccc(F)c2)c1,1%,-25%,1.6%,-1
O=C1OC(Nc2ccc(F)c([N+](=O)[O-])c2)c2ccccc21 (stereo not drawn),-11%,1%,-0.5%,-6
O=C(CS(=O)CC(=O)N(c1cccc(F)c1)C(C(=O)NC1CCCCC1)c1ccco1)Nc1ccc(F)cc1 (stereo not drawn),-3%,-5%,1.6%,2
